Screening data as filed in PubChem.
GIV Gai3 FP = inhibitors of GIV peptide binding to Galpha-i3, primary screen, biochemical, fluorescence polarization, FITC-GIV GBA peptide, rat Galphai3; Guanine nucleotide-binding protein G(i) subunit alpha-3 (Rattus norvegicus), P08753; 90 min; active compounds read low; scaled: aluminum fluoride 0%, vehicle 100%; percent of control (FP), % (no concentration beside the values); actives 0.42% (n = 210,000); AID 1224905, 2016;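 active = replicate mean at 85% of control or lower, very high polarization wells dropped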;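 also: wells of about 15 µL received 100 nL stock; the first replicate is given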
Target sequence (P08753 whole entry, looked up): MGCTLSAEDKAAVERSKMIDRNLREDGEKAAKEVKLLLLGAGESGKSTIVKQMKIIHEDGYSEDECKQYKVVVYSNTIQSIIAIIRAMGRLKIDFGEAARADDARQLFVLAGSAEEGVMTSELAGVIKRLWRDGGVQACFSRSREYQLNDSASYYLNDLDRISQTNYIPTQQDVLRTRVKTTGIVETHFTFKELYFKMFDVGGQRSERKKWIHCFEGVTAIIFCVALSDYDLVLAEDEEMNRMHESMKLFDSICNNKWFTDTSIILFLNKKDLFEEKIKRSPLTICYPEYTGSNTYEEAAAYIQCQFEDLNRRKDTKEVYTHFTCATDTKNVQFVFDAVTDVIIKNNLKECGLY
HCMV NEC inh = inhibitors of HCMV UL50-UL53 interaction, biochemical, HTRF. HCMV UL50-UL53 nuclear egress complex (human cytomegalovirus). normalized percent inhibition. inhibition, % (test concentration not listed). actives 0.15% (n = 190,000);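 active = both replicates at 50% or more, plus weaker picks with an unusually low signal ratio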;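 also: stock transfer was 100 nL into about 20 µL; 0% = negative control wells and 100% = wells with untagged competitor protein; inactives centre near -12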
Sa growth inh = S. aureus growth inhibition at 42 and 30 °C, primary screen, LtaS inhibitor project, RN4220, two temperatures; relative growth, % (test concentration not listed); OD600, 20 h, 42 °C; active compounds read low; actives 0.53% (n = 170,000); AID 720641, 2013;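 active = growth at 42 °C up to 50% and 20 or more points under that at 30 °C, or under 10% at both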;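 also: 300 nL library stock went into each well; scaled to the means of positive and negative controls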
Sa growth inh second temp = also measured in Sa growth inh; calls as there; relative growth, %; measured here: growth at 30 °C;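 optical density after 20 h as mean of two plates; 100% = untreated growth and lower means inhibition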
An asterisk follows results filed as active; / = not tested or not shown; & = joins results of further samples.

[1] CC(C(=O)O)n1cnc2scc(-c3ccc(Br)cc3)c2c1=O (stereo unspecified)
[2] COc1cc(/C=N/N2C(=O)c3ccccc3C2=O)ccc1OCC(=O)N1CCOCC1
[3] O=C(Cn1c2ccccc2c2cn[nH]c(=O)c21)NCc1cccnc1
[4] COc1ccc(CC(=O)NCC2OCCc3ccccc32)cc1OC (stereo unspecified)
[5] O=C1CCCC(=NCc2ccco2)C1
[6] CCN1c2ccccc2C(=O)CS1(=O)=O
Screen / compound no.	1	2	3	4	5	6
GIV Gai3 FP	101	/	102	100	/	103
HCMV NEC inh	-16	-55	/	-38	-8	-14
Sa growth inh	124	104	135	86	75	66
Sa growth inh second temp	94	87	91	79	91	67

[7] Cc1nc(C)c(C(=O)O)o1
[8] Cc1ccc(NC(=O)CSc2ccc(C(F)(F)F)cn2)cc1C#N
[9] COc1ccc(C)cc1NC(=O)CN(C)S(=O)(=O)c1ccc2[nH]c(=O)oc2c1
[10] CCN1CCCC1CNC(=O)c1ccc2c(c1)N(Cc1ccccc1)C(=O)c1ccccc1S2(=O)=O (stereo unspecified)
[11] CCN1CCN(C(=O)/C=C/c2ccc(OC)c(OC)c2)CC1
[12] COc1cccc(-c2nc(SCC(=O)NCc3ccccc3)c3c(=O)n(C)c(=O)n(C)c3n2)c1
Screen / compound no.	7	8	9	10	11	12
GIV Gai3 FP	96	103	105	103	/	98
HCMV NEC inh	0	-3	/	4	-47	/
Sa growth inh	100	90	85	98	96	83
Sa growth inh second temp	76	78	85	89	92	93

The closing four compounds of the part before come first, to join the parts:
[9] COc1ccc(C)cc1NC(=O)CN(C)S(=O)(=O)c1ccc2[nH]c(=O)oc2c1
[10] CCN1CCCC1CNC(=O)c1ccc2c(c1)N(Cc1ccccc1)C(=O)c1ccccc1S2(=O)=O (stereo unspecified)
[11] CCN1CCN(C(=O)/C=C/c2ccc(OC)c(OC)c2)CC1
[12] COc1cccc(-c2nc(SCC(=O)NCc3ccccc3)c3c(=O)n(C)c(=O)n(C)c3n2)c1
[13] COCCCn1c(SCc2ccccc2)nc2c(-c3ccccc3)cn(C)c2c1=O
[14] O=C(NCCc1ccccc1)C1CCC(=O)N1CCc1ccccc1 (stereo unspecified)
[15] O=C(C1CCC1)N1CCc2cc(S(=O)(=O)NCCN3CCOCC3)ccc21
[16] CCOc1cc(CN2CCN(CC3CC4C=CC3C4)CC2)ccc1OC (stereo unspecified)
[17] Cc1cccc(C(=O)N2CC(C)CC(C)C2)c1 (stereo unspecified)
[18] Cc1ccc(-n2nnc(C(=O)OCc3ccc(F)cc3)c2C)cc1F
Screen / compound no.	9	10	11	12	13	14	15	16	17	18
GIV Gai3 FP	105	103	/	98	104	99	92	104	101	107
HCMV NEC inh	/	4	-47	/	-30	3	-11	3	0	-7
Sa growth inh	85	98	96	83	/	93	76	69	106	/
Sa growth inh second temp	85	89	92	93	/	83	86	113	106	/

[19] COCCn1c(C)nc2ccccc21
[20] COC(=O)C1CN(C(=O)c2cccc(OC)c2)c2ccccc2O1 (stereo unspecified)
[21] COc1ccc(N2C(=O)CC(N3CCN(C(c4ccc(F)cc4)c4ccc(F)cc4)CC3)C2=O)cc1 (stereo unspecified)
[22] CN(C)/C=N/c1c(-c2nc(-c3ccc(Cl)cc3)cs2)cnn1C
[23] CNC(=S)N/N=C(\C)c1ccc2c(c1)OCCO2
[24] COc1cc(OC)cc(C(=O)N(c2ccccn2)c2ccccn2)c1
Screen / compound no.	19	20	21	22	23	24
GIV Gai3 FP	95	104	113	102	/	/
HCMV NEC inh	-21	-16	-14	-34	-33	-23
Sa growth inh	/	84	89	113	93	108
Sa growth inh second temp	/	80	78	82	94	97

3 entries from above, arranged by the number in Sa growth inh second temp, descending:
no.	SMILES	Sa growth inh second temp
1	CC(C(=O)O)n1cnc2scc(-c3ccc(Br)cc3)c2c1=O (stereo unspecified)	94
11	CCN1CCN(C(=O)/C=C/c2ccc(OC)c(OC)c2)CC1	92
10	CCN1CCCC1CNC(=O)c1ccc2c(c1)N(Cc1ccccc1)C(=O)c1ccccc1S2(=O)=O (stereo unspecified)	89

Other records follow.
[25] COc1ccc(C2=Nc3ccccc3N=C(c3ccc4ccccc4c3O)C2)cc1
[26] CC(=O)NCCNC(=O)CCc1nc2sc3c(c2c(=O)[nH]1)CCC(C)C3 (stereo unspecified)
[27] CCN(CC)c1ccc(N=Cc2ccccc2O)cc1
[28] N#C/C(=C\Nc1ccc(C(N)=O)cc1)c1nc(-c2ccccc2)cs1
[29] O=C(CSc1nc2nccnc2c(=O)n1CCc1c[nH]c2ccccc12)Nc1ccc(F)cc1
[30] O=C(Nc1ccc2c(c1)OCCO2)c1ccc(S(=O)(=O)c2ccc(Br)cc2)nc1
Screen / compound no.	25	26	27	28	29	30
GIV Gai3 FP	110	106	140	97	100	104
HCMV NEC inh	/	-14	-16	/	-22	6
Sa growth inh	94	/	87	102	109	/
Sa growth inh second temp	79	/	94	90	97	/

[31] Cc1ccc(Cn2cnc3c(oc4ccccc43)c2=O)cc1
[32] Cn1cc(CNC(=S)NCc2ccc(Cl)cc2)cn1
[33] CN(Cc1ccccc1)C(=O)CN1C(=O)c2cccnc2Oc2ccc(Cl)cc21
[34] O=c1c(=NO)c(=O)c2ccccc12
[35] O=C(COC(=O)c1cccnc1Cl)c1ccccc1
[36] Cc1ccc(NC(=O)C2CC(=O)N(C(C)C)C2)cc1 (stereo unspecified)
Screen / compound no.	31	32	33	34	35	36
GIV Gai3 FP	107&117	102	107	55*	/	/
HCMV NEC inh	-15	-7	-11	62	-30	-2
Sa growth inh	106	107	98	99	92	102
Sa growth inh second temp	88	95	70	70	87	82

[37] N#Cc1ccc(NC(=O)Nc2ccccc2)cc1
[38] CC(C)c1ccc(NC(=O)c2ccc3snnc3c2)cc1
[39] O=C(Cn1nc2n(Cc3ccc(F)cc3)c(=O)c3ccccc3n2c1=O)c1ccccc1
[40] COc1ccc(-c2onc(C)c2C)cc1S(=O)(=O)NCC(C)c1ccccc1 (stereo unspecified)
[41] Cc1cc(Cl)ccc1NS(=O)(=O)c1cn(C)c(C)n1
[42] O=C(Nc1ccc(N2CCCCS2(=O)=O)cc1)c1ccccc1
Screen / compound no.	37	38	39	40	41	42
GIV Gai3 FP	101	96	100	101	102	101
HCMV NEC inh	-23	/	-35	/	-10	-41
Sa growth inh	12	106	/	74	/	92
Sa growth inh second temp	12	91	/	82	/	89

[43] Cn1c(CN2CCOCC2)nc2cc(N)ccc21
[44] CC(C(=O)NCC1CCCO1)n1c2ccccc2c2cnn(C)c(=O)c21 (stereo unspecified)
[45] Cc1oc2ccccc2c1-c1csc(-c2ccccc2)n1
[46] Cc1cc(C)n(CCC(=O)N2CCN(S(=O)(=O)c3ccccc3)CC2)n1
[47] O=C1CN(C(=O)Cn2cc(C(F)(F)F)ccc2=O)c2ccccc2N1
[48] CC(CN1CCCCC1)OC(=O)c1ccc2c(c1)OCO2 (stereo unspecified)
Screen / compound no.	43	44	45	46	47	48
GIV Gai3 FP	101	103	95	98	/	101
HCMV NEC inh	/	1	/	-11	-5	-13
Sa growth inh	96	101	102	113	104	95
Sa growth inh second temp	84	92	95	91	107	82

Sorted by formula weight (descending): some entries from above
[40] COc1ccc(-c2onc(C)c2C)cc1S(=O)(=O)NCC(C)c1ccccc1 (stereo unspecified)
[46] Cc1cc(C)n(CCC(=O)N2CCN(S(=O)(=O)c3ccccc3)CC2)n1
[47] O=C1CN(C(=O)Cn2cc(C(F)(F)F)ccc2=O)c2ccccc2N1
[41] Cc1cc(Cl)ccc1NS(=O)(=O)c1cn(C)c(C)n1
[48] CC(CN1CCCCC1)OC(=O)c1ccc2c(c1)OCO2 (stereo unspecified)
[43] Cn1c(CN2CCOCC2)nc2cc(N)ccc21
Screen / compound no.	40	46	47	41	48	43
GIV Gai3 FP	101	98	/	102	101	101
HCMV NEC inh	/	-11	-5	-10	-13	/
Sa growth inh	74	113	104	/	95	96
Sa growth inh second temp	82	91	107	/	82	84

Other records.
[49] CCNC(=O)CN1C(=O)CC(C)Sc2ccc(S(=O)(=O)N3CCC(C)CC3)cc21 (stereo unspecified)
[50] O=c1c2cc3c(cc2n(Cc2ccccc2)c(=O)n1Cc1nc(-c2ccccc2)no1)OCO3
[51] Cc1ccc(CCNC(=O)c2cnc3c(-c4ccc(F)cc4)c(C)nn3c2C)cc1
[52] OC1CCCN(Cc2cccc3ccccc23)C1 (stereo unspecified)
[53] Cc1cc2nc(CSc3nnc(NC(=O)Nc4ccc(C)c(Cl)c4)s3)cc(=O)n2o1
[54] CCCc1cnc(N2CCN(S(C)(=O)=O)CC2)nc1
Screen / compound no.	49	50	51	52	53	54
GIV Gai3 FP	103	108	99	106	106	107
HCMV NEC inh	-14	/	/	-11	3	-11
Sa growth inh	/	84	97	109	/	105
Sa growth inh second temp	/	94	101	109	/	93

[55] CCc1ccc(N2C(=O)/C(=C/c3ccc(OCC(=O)OC)c(OC)c3)C(=O)NC2=S)cc1
[56] Cn1c(SCc2cc(=O)oc3cc(O)c(O)cc23)nc2ccccc21
[57] Cc1cccc(Oc2coc3cc(OCC(=O)NC4CCCCC4)ccc3c2=O)c1
[58] COc1ccc(OC)c(S(=O)(=O)N2Cc3ccccc3CC2C(=O)Nc2ccc(Cl)cc2)c1 (stereo unspecified)
[59] O=C(CCOc1ccccc1)N(Cc1cccnc1)c1nc2c(F)cccc2s1
[60] Cc1ccc(OCC(=O)Nc2ccc(OCc3cc(=O)n4cccc(C)c4n3)cc2)cc1C
Screen / compound no.	55	56	57	58	59	60
GIV Gai3 FP	95	/	98	99	98	99
HCMV NEC inh	-23	-44	-1	-2	/	/
Sa growth inh	/	71	111	120	100	95
Sa growth inh second temp	/	63	90	96	91	89

[61] CCOC(=O)CC1=NC(=O)CS1
[62] COC(=O)c1ccccc1NC(=O)c1cc(C2CC2)on1
[63] O=C(NCc1noc2ccccc12)Nc1ccc2c(c1)OCCO2
[64] COc1cccc(CNC(=O)Cc2c(C)c3cc4c(C)coc4cc3oc2=O)c1
[65] Cc1ccc(C(=O)Cn2c(=N)n(C)c3ccccc32)cc1
[66] COC(=O)c1ccc(OCc2ccc(Cl)c(Cl)c2)cc1
Screen / compound no.	61	62	63	64	65	66
GIV Gai3 FP	106	101	101	101	/	106
HCMV NEC inh	17	-2	/	-23	-9	1
Sa growth inh	100	97	106	98	90	/
Sa growth inh second temp	97	84	85	91	71	/

[67] COc1ccc(-c2noc(CCC(=O)NCCCN3CCC(Cc4ccccc4)CC3)n2)cc1
[68] CC(Oc1ccccc1)c1nc2ccccc2n1CCOc1ccccc1 (stereo unspecified)
[69] O=C(O)C1CC(=O)N(CCc2ccccc2)C1 (stereo unspecified)
[70] CCc1ccc(NC(=S)Nc2ccccc2C(C)C)cc1
[71] CN1CCN(C(c2ccc(Cl)cc2Cl)c2sc3nc(-c4ccco4)nn3c2O)CC1 (stereo unspecified)
[72] O=C1NC2(CCCC2)C(=O)N1CCSc1ccccc1F
Screen / compound no.	67	68	69	70	71	72
GIV Gai3 FP	104	104	107	97	98	/
HCMV NEC inh	9	/	/	-29	/	-14
Sa growth inh	107	77	117	86	151	80
Sa growth inh second temp	82	61	98	87	86	98

[73] COc1cc(/C=C2\C(=O)NC(=O)N(c3ccc4c(c3)OCO4)C2=O)ccc1OCc1ccc(C(=O)O)cc1
[74] COc1ccc(-c2nc(CCNC(=O)COc3ccccc3OC)cs2)cc1
[75] CCCCOC(=O)c1ccc(NCN2C(=O)S/C(=C/c3ccc(C(=O)OC)cc3)C2=O)cc1
[76] CCC(C)NC(=O)C1CC(c2ccccc2F)=NO1 (stereo unspecified)
[77] COc1ccc(/C=C/C=C2/SC(=O)N(CC(=O)N3CCCC3)C2=O)cc1
[78] CC(N=Cc1cccc(O)c1O)c1ccccc1 (stereo unspecified)
Screen / compound no.	73	74	75	76	77	78
GIV Gai3 FP	118	98	102	94	100	88
HCMV NEC inh	31	-31	-22	-13	-126	-9
Sa growth inh	/	/	/	101	90	59
Sa growth inh second temp	/	/	/	91	74	63

[79] COc1ccccc1CNC(=O)CCC1N=C2c3ccccc3N=C(SCc3ccc(Cl)cc3)N2C1=O (stereo unspecified)
[80] O=C(Cn1c2ccccc2c(=O)c2ccccc21)NCc1cccc(OC(F)(F)F)c1
[81] O=C(O)CC(CC(=O)Nc1cc(C(F)(F)F)cc(C(F)(F)F)c1)c1ccc(Cl)cc1Cl (stereo unspecified)
[82] CCOC(=O)c1c(SC)[nH]c2c(Cl)cccc2c1=O
[83] Oc1ccc(-c2nc3ccc(Cl)cn3c2Nc2ccc3c(c2)OCO3)cc1
[84] O=C(Nc1ccc2c(c1)OCO2)Nc1cc(NC(=O)c2ccc(F)cc2)ccc1N1CCCC1
[85] O=C(c1ccccc1)c1ccccc1Br
Screen / compound no.	79	80	81	82	83	84	85
GIV Gai3 FP	100	101	103	106	100	100	100
HCMV NEC inh	/	-31	-37	3	-25	-10	-2&-6
Sa growth inh	87	/	86	106	103	/	95
Sa growth inh second temp	99	/	93	91	93	/	94
